Source: PubChem BioAssay (Broad Institute)
Yeast UUG start – modulators of yeast start codon fidelity, primary screen, whole organism, S. cerevisiae, single point, plate reader; S. cerevisiae UUG-firefly luciferase reporter, luminescence/redox ratio; activity score, % at 18.7 µM; 0.13% of 350,000 active;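 active = replicate mean at a twofold rise or more, about +100% in these data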;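 note: firefly luciferase made from a UUG start codon reports start codon fidelity; reporter light over untreated wells divided by growth signal over untreated wells; some hits fall short of that in this replicate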
Env fusion inh – inhibitors of HIV-1 Env-driven cell-cell fusion, primary screen, HeLa-JRFL effector, CEM21 target cells, luciferase | inhibition, % at 12.3 µM | 1.1% of 360,000 active;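 active = mean replicate inhibition score of at least 50 and every replicate individually at or above 50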;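 note: 0% = plate neutral controls and 100% = maraviroc near 300 nM; one replicate is shown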
The depositor's hits bear a star; [ ] = remark or other dose.

SMILES	Yeast UUG start	Env fusion inh
C[C@@H]1CN([C@@H](C)CO)C(=O)c2cc(C#Cc3ccccc3F)cnc2O[C@H]1CN(C)C(=O)C1CC1	10	3[16.7 µM]
CO[C@@H]1CN(C)C(=O)c2cc(NC(=O)NC3CCCCC3)ccc2OC[C@H](C)N(C)C[C@@H]1C	4	10[16.7 µM]
Cc1noc(C)c1S(=O)(=O)N(C)C[C@@H]1Oc2ccc(NC(=O)Nc3ccc(C(F)(F)F)cc3)cc2CC(=O)N([C@@H](C)CO)C[C@@H]1C	-7	1[16.7 µM]
Cc1ccc(S(=O)(=O)N(C)C[C@H]2OCCCC[C@H](C)Oc3ccc(NC(=O)Nc4cccc5ccccc45)cc3C(=O)N([C@H](C)CO)C[C@@H]2C)cc1	-5	-28[16.7 µM]
C[C@H](CO)N1C[C@H](C)[C@@H](CN(C)S(=O)(=O)c2ccccc2)Oc2c(NC(=O)c3nc4ccccc4s3)cccc2C1=O	-1	47[16.7 µM]
C[C@@H]1CN([C@H](C)CO)C(=O)c2cccc(NS(C)(=O)=O)c2O[C@H]1CN(C)C(=O)Nc1ccc2c(c1)OCO2	7	-7[16.7 µM]
C[C@H](CO)N1C[C@H](C)[C@@H](CN(C)S(=O)(=O)c2ccc(Cl)cc2)Oc2ccc(NC(=O)Nc3ccc4c(c3)OCO4)cc2CC1=O	-4	11[16.7 µM]
C[C@@H]1CN([C@@H](C)CO)C(=O)Cc2cc(NS(C)(=O)=O)ccc2O[C@@H]1CN(C)Cc1ccc2c(c1)OCO2	-4	-4[16.7 µM]
C[C@@H]1CN([C@H](C)CO)C(=O)c2cc(NC(=O)CCC(F)(F)F)ccc2O[C@@H](C)CCCCO[C@@H]1CN(C)Cc1ccc(Cl)c(Cl)c1	15	11[16.7 µM]
CC(C)C#Cc1ccc2c(c1)O[C@H](CN(C)Cc1ccccc1)[C@H](C)CN([C@@H](C)CO)S2(=O)=O	2	21[16.7 µM]
COc1ccccc1CNC(=O)C[C@H]1CC[C@H]2[C@@H](COc3ccc(NC(C)=O)cc3C(=O)N2C)O1	-7	22[16.7 µM]
Cc1noc(C)c1NC(=O)Nc1cccc2c1O[C@H](CN(C)S(=O)(=O)c1ccc(Cl)cc1)[C@@H](C)CN([C@H](C)CO)C2=O	5	0[16.7 µM]
CC(C)C#Cc1ccc2c(c1)O[C@@H](CN(C)CC1CCCC1)[C@H](C)CN([C@H](C)CO)S2(=O)=O	25	19[16.7 µM]
C[C@H]1CN([C@@H](C)CO)C(=O)c2cc(NS(=O)(=O)c3ccccc3)ccc2O[C@@H]1CN(C)Cc1ccccc1	7	-30[16.7 µM]
C[C@H]1CN([C@@H](C)CO)C(=O)c2cc(-c3cccc(F)c3)cnc2O[C@H]1CN(C)Cc1cncnc1	-1	11[16.7 µM]
C[C@@H]1CN([C@H](C)CO)C(=O)c2cc(NC(=O)c3ccncc3)ccc2O[C@@H](C)CCCCO[C@@H]1CN(C)Cc1ccc2c(c1)OCO2	-2	-18[16.7 µM]
Cc1noc(C)c1S(=O)(=O)Nc1ccc2c(c1)CC(=O)N([C@H](C)CO)C[C@@H](C)[C@@H](CN(C)S(=O)(=O)c1c(C)noc1C)O2	21	10[16.7 µM]
COc1ccc(NC(=O)Nc2ccc3c(c2)CC(=O)N([C@@H](C)CO)C[C@@H](C)[C@@H](CN(C)Cc2ccc(Cl)c(Cl)c2)O3)cc1	19	18[16.7 µM]
COc1ccc(S(=O)(=O)Nc2ccc3c(c2)C(=O)N([C@@H](C)CO)C[C@@H](C)[C@@H](CN(C)C(=O)CCC(F)(F)F)OCCCC[C@H](C)O3)cc1	5	-14[16.7 µM]
CO[C@H]1CN(C)C(=O)c2ccc(NC(=O)c3ccccc3)cc2OC[C@H](C)N(C)C[C@H]1C	-5	4[16.7 µM]
CNC[C@@H]1Oc2c(NC(=O)Nc3ccc4c(c3)OCO4)cccc2C(=O)N([C@H](C)CO)C[C@H]1C	3	-4[16.7 µM]
COc1ccc(NC(=O)Nc2ccc3c(c2)C(=O)N([C@@H](C)CO)C[C@@H](C)[C@H](CN(C)S(=O)(=O)c2c(C)noc2C)OCCCC[C@@H](C)O3)cc1	7	-35[16.7 µM]
Cc1noc(C)c1S(=O)(=O)Nc1ccc2c(c1)C(=O)N([C@@H](C)CO)C[C@H](C)[C@H](CN(C)S(=O)(=O)c1ccc(F)cc1)OCCCC[C@@H](C)O2	5	-29[16.7 µM]
C[C@@H]1CCCCO[C@@H](CN(C)C(=O)c2ccccc2)[C@H](C)CN([C@@H](C)CO)C(=O)c2cc(NS(=O)(=O)c3ccc(F)cc3)ccc2O1	30	-9[16.7 µM]
C[C@@H]1CN([C@@H](C)CO)C(=O)c2cc(NC(=O)Cc3cn(C)c4ccccc34)ccc2O[C@@H]1CN(C)C(=O)Nc1ccc(C(F)(F)F)cc1	-8	-3[16.7 µM]

More compounds follow:
SMILES	Yeast UUG start	Env fusion inh
COc1ccc(S(=O)(=O)Nc2ccc3c(c2)CC(=O)N([C@@H](C)CO)C[C@@H](C)[C@@H](CN(C)S(=O)(=O)c2ccc(Cl)cc2)O3)cc1	6	-16[16.7 µM]
O=C(Nc1ccc2c(c1)OCO2)N[C@H]1CC[C@@H](CCNC(=O)C2CCCC2)O[C@H]1CO	23	-11[16.7 µM]
COc1ccc(S(=O)(=O)Nc2cccc3c2O[C@H](CN(C)S(=O)(=O)c2ccc(C)cc2)[C@H](C)CN([C@@H](C)CO)C3=O)cc1	3	-39[16.7 µM]
CNC[C@@H]1OCCCC[C@@H](C)Oc2ccc(NS(=O)(=O)c3cn(C)cn3)cc2C(=O)N([C@H](C)CO)C[C@@H]1C	-8	5[16.7 µM]
CC(C)C(=O)Nc1ccc2c(c1)C(=O)N(C)[C@H]1CC[C@@H](CC(=O)NCc3ccccc3F)O[C@H]1CO2	17	6[16.7 µM]
COc1ccc(NC(=O)Nc2ccc3c(c2)C(=O)N([C@@H](C)CO)C[C@@H](C)[C@@H](CN(C)C(=O)Nc2c(C)noc2C)OCCCC[C@@H](C)O3)cc1	-21	13[16.7 µM]
COc1ccc(CN(C)C[C@H]2Oc3ccc(NC(=O)C4CC4)cc3C(=O)N([C@H](C)CO)C[C@H]2C)cc1	-6	21[16.7 µM]
CCC(=O)N[C@@H]1CC[C@H](CC(=O)NCC2CCCCC2)O[C@@H]1CO	-10	-13[16.7 µM]
Cc1ccc(S(=O)(=O)Nc2ccc3c(c2)C(=O)N([C@H](C)CO)C[C@@H](C)[C@H](CN(C)S(C)(=O)=O)OCCCC[C@@H](C)O3)cc1	18	-6[16.7 µM]
O=C(N[C@H]1C=C[C@@H](CC(=O)N2CCOCC2)O[C@@H]1CO)c1cccc(F)c1	-5	-10[16.7 µM]
C[C@@H]1CCCCO[C@H](CN(C)S(=O)(=O)c2cccs2)[C@H](C)CN([C@@H](C)CO)C(=O)c2cc(NC(=O)C3CCCCC3)ccc2O1	-4	-73[16.7 µM]
Cc1noc(C)c1NC(=O)N(C)C[C@H]1Oc2ccc(NS(=O)(=O)c3ccc(Cl)cc3)cc2C(=O)N([C@H](C)CO)C[C@@H]1C	-2	13[16.7 µM]
Cc1noc(C)c1NC(=O)Nc1ccc2c(c1)C(=O)N([C@@H](C)CO)C[C@H](C)[C@@H](CN(C)Cc1ccccc1)OCCCC[C@@H](C)O2	17	2[16.7 µM]
C[C@@H]1CCCCO[C@H](CN(C)C(=O)Nc2ccccc2)[C@@H](C)CN([C@H](C)CO)C(=O)c2cc(NC(=O)C3CCCCC3)ccc2O1	-15	-26[16.7 µM]
Cc1noc(C)c1S(=O)(=O)Nc1ccc2c(c1)C(=O)N([C@H](C)CO)C[C@@H](C)[C@@H](CN(C)Cc1ccc(Cl)c(Cl)c1)O2	3	-15[16.7 µM]
COc1ccc(NC(=O)Nc2ccc3c(c2)C(=O)N([C@@H](C)CO)C[C@@H](C)[C@@H](CN(C)Cc2ccc4c(c2)OCO4)O3)cc1	2	0[16.7 µM]
COc1cccc(S(=O)(=O)N[C@@H]2CC[C@@H](CCn3cc(-c4ccccc4OC)nn3)O[C@@H]2CO)c1	20	1[16.7 µM]
N#C[C@@H]1[C@H](c2ccc(-c3ccccc3)cc2)[C@@H](CO)N1C(=O)Cc1ccccc1	-6	18[16.7 µM]
C[C@@H]1CN([C@@H](C)CO)S(=O)(=O)c2ccc(C#CC3CC3)cc2O[C@@H]1CN(C)Cc1ccncc1	-3	7[16.7 µM]
C[C@@H]1CCCCO[C@H](CN(C)Cc2ccccc2)[C@H](C)CN([C@@H](C)CO)C(=O)c2cc(NS(=O)(=O)c3ccc(Cl)cc3)ccc2O1	22	-11[16.7 µM]
Cc1noc(C)c1S(=O)(=O)Nc1ccc2c(c1)CC(=O)N([C@@H](C)CO)C[C@@H](C)[C@@H](CN(C)S(=O)(=O)c1ccc(F)cc1)O2	-1	1[16.7 µM]
C[C@@H]1CCCCO[C@@H](CN(C)Cc2ccc(C(=O)O)cc2)[C@H](C)CN([C@H](C)CO)C(=O)c2cc(NC(=O)c3ccccc3)ccc2O1	27	-13[16.7 µM]
CNC[C@@H]1OCCCC[C@H](C)Oc2ccc(NS(=O)(=O)c3cn(C)cn3)cc2C(=O)N([C@H](C)CO)C[C@@H]1C	-4	2[16.7 µM]
Cc1ccc(S(=O)(=O)Nc2ccc3c(c2)C(=O)N([C@@H](C)CO)C[C@H](C)[C@@H](CN(C)CC2CCCCC2)O3)cc1	-11	-30[16.7 µM]
C[C@@H]1CN([C@@H](C)CO)C(=O)Cc2cc(NC(=O)NC3CCCCC3)ccc2O[C@@H]1CN(C)C(=O)Nc1cccc2ccccc12	-2	6[16.7 µM]

Next section
SMILES	Yeast UUG start	Env fusion inh
C[C@@H]1CN([C@@H](C)CO)C(=O)c2cc(C#CCc3ccccc3)cnc2O[C@@H]1CN(C)C(=O)C1CCOCC1	1	7[16.7 µM]
COc1ccc(S(=O)(=O)Nc2ccc3c(c2)C(=O)N([C@H](C)CO)C[C@H](C)[C@@H](CN(C)Cc2ccc(Oc4ccccc4)cc2)O3)cc1	6	33[16.7 µM]
CC(=O)N(C)C[C@@H]1Oc2cc(-c3ccc(C)cc3)ccc2S(=O)(=O)N([C@H](C)CO)C[C@H]1C	15	13[16.7 µM]
COc1ccccc1-c1cnc2c(c1)C(=O)N([C@@H](C)CO)C[C@@H](C)[C@@H](CN(C)Cc1cccnc1)O2	4	-23[16.7 µM]
C[C@@H]1CN([C@@H](C)CO)C(=O)c2cccc(NC(=O)C3CC3)c2O[C@H]1CN(C)C(=O)NC1CCCCC1	5	-26[16.7 µM]
O=C(Cc1ccccn1)NCC[C@H]1CC[C@@H](NC(=O)Nc2ccccc2)[C@H](CO)O1	13	-3[16.7 µM]
C[C@H]1CN([C@@H](C)CO)S(=O)(=O)c2ccc(-c3ccc(F)cc3)cc2O[C@H]1CN(C)CC1CC1	15	-30[16.7 µM]
O=C(NCC[C@H]1CC[C@H](NS(=O)(=O)c2cccc(Cl)c2)[C@@H](CO)O1)c1cnccn1	9	29[16.7 µM]
N#Cc1cccc(NC(=O)c2cc(C3CCCCN3C(=O)C3CC3)on2)c1 (stereo not drawn)	-12	-15
CC(C)NC(=O)N(C)C[C@@H]1Oc2cc(C#Cc3ccccn3)ccc2S(=O)(=O)N([C@H](C)CO)C[C@@H]1C	-2	-6[16.7 µM]
C[C@@H]1CN([C@@H](C)CO)C(=O)Cc2cc(NC(=O)c3ccncc3)ccc2O[C@H]1CN(C)C(=O)Nc1cccc2ccccc12	-1	14[16.7 µM]
N#C[C@@H]1N[C@H](CO)[C@H]1c1ccc(C2=CCCC2)cc1	-24	6[16.7 µM]
C[C@@H]1CN([C@H](C)CO)C(=O)c2cc(C#CC3(O)CCCC3)cnc2O[C@H]1CN(C)C	2	-1[16.7 µM]
C[C@@H]1CN([C@H](C)CO)C(=O)Cc2cc(NS(=O)(=O)c3cccs3)ccc2O[C@H]1CN(C)C(=O)Nc1ccc2c(c1)OCO2	13	-11[16.7 µM]
N#C[C@H]1[C@@H](c2ccc(C#Cc3ccccc3F)cc2)[C@H](CO)N1C(=O)C1CCC1	-2	-10[16.7 µM]
COc1ccc(CN(C)C[C@H]2OCCCC[C@@H](C)Oc3ccc(NC(=O)CCC(F)(F)F)cc3C(=O)N([C@@H](C)CO)C[C@@H]2C)cc1	5	-22[16.7 µM]
C[C@H]1CCCCO[C@H](CN(C)S(=O)(=O)c2cn(C)cn2)[C@@H](C)CN([C@@H](C)CO)C(=O)c2cc(NC(=O)CCCN(C)C)ccc2O1	-26	0[16.7 µM]

Copied from the entries so far, 5 compounds:
SMILES	Yeast UUG start	Env fusion inh
C[C@@H]1CN([C@H](C)CO)C(=O)c2cc(C#CC3(O)CCCC3)cnc2O[C@H]1CN(C)C	2	-1[16.7 µM]
C[C@@H]1CN([C@H](C)CO)C(=O)Cc2cc(NS(=O)(=O)c3cccs3)ccc2O[C@H]1CN(C)C(=O)Nc1ccc2c(c1)OCO2	13	-11[16.7 µM]
N#C[C@H]1[C@@H](c2ccc(C#Cc3ccccc3F)cc2)[C@H](CO)N1C(=O)C1CCC1	-2	-10[16.7 µM]
COc1ccc(CN(C)C[C@H]2OCCCC[C@@H](C)Oc3ccc(NC(=O)CCC(F)(F)F)cc3C(=O)N([C@@H](C)CO)C[C@@H]2C)cc1	5	-22[16.7 µM]
C[C@H]1CCCCO[C@H](CN(C)S(=O)(=O)c2cn(C)cn2)[C@@H](C)CN([C@@H](C)CO)C(=O)c2cc(NC(=O)CCCN(C)C)ccc2O1	-26	0[16.7 µM]

Arranged by value in Yeast UUG start (high to low): three of the compounds above
SMILES	Yeast UUG start	Env fusion inh
O=C(Cc1ccccn1)NCC[C@H]1CC[C@@H](NC(=O)Nc2ccccc2)[C@H](CO)O1	13	-3[16.7 µM]
N#C[C@H]1[C@@H](c2ccc(C#Cc3ccccc3F)cc2)[C@H](CO)N1C(=O)C1CCC1	-2	-10[16.7 µM]
N#C[C@@H]1N[C@H](CO)[C@H]1c1ccc(C2=CCCC2)cc1	-24	6[16.7 µM]

Not all compounds are listed; count on the stated rates, not on these rows.
